# HIV TAR-Tat = HIV-1 TAR-Tat binding disruption; HIV-1 TAR RNA, Tat peptide displacement FRET; active compounds read high; z-score (test concentration not listed); actives 0.6% (n = 100,000); AID 1259389;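 also: score is relative to mean and SD of negative controls; some compounds called inactive have numbers as strong as hits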
# CDC25B-CDK2 inh = human CDC25B-CDK2/CyclinA binding inhibition. HTRF CDC25B-CDK2/CyclinA binding, anti-His/anti-Flag; active compounds read high. z-score (concentration not given with the values). actives 0.72% (n = 94,000). AID 1259370;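 also: score is relative to mean and SD of negative controls; strong numbers were not always called active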
# * = called active by the depositor; . = no result given.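 The calls were made as follows: active = z-score from 3 up in half or more of its runs; inactive = the rest.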 Rows are unselected; overall some 0.9% were active at least once.
# Second line of a record: HIV TAR-Tat, CDC25B-CDK2 inh
CS(=O)(=O)Nc1ccc(-c2noc(CNS(=O)(=O)c3ccccc3)n2)cc1
    1.4, .
CCOc1cc(-c2noc(-c3ccncc3)n2)ccc1OC
    1.2, 0.21
Cc1cc(C)c(C)c(S(=O)(=O)Nc2ccc3oc(=O)sc3c2)c1C
    -0.1, -1.6
CCc1ccc2nc(NC3=NCN(CCCN4CCOCC4)CN3)nc(C)c2c1
    1, -0.01
CCc1ccccc1Nc1c(-c2ccc(C(C)C)cc2)c(=O)c1=O
    1.9, .
CCC(C)NS(=O)(=O)c1cc(-c2csc(C)n2)ccc1C (configuration not stated)
    0.11, .
O=C(c1cccs1)n1ccc(-c2ccc(C#Cc3ccccc3)s2)n1
    ., -0.31
COC(=O)COc1ccc2c(=O)c(Oc3ccccc3Cl)c(C(F)(F)F)oc2c1
    -0.78, -0.13
COCCCNc1ncnc2c1c(-c1ccccc1)cn2-c1ccc(F)cc1
    ., -0.06
O=C(CSc1nc2ccccc2c(=O)n1Cc1cccs1)NCc1ccco1
    ., -2.2
Cc1cc2ccccc2n2c(SCC(N)=O)nnc12
    -1.2, 0.83
CCCN1CN(CCc2ccccc2)CNC1=S
    ., -2.3
CCc1nn2c(=O)c(S(=O)(=O)NCCc3ccccc3)c(C)nc2s1
    -0.97, -3.3
CC1CCN(CCNS(=O)(=O)c2ccc3c(c2)NC(=O)C(C)CS3)CC1 (configuration not stated)
    1, .
C=CCOC(=O)C1=C(C)NC2=C(C(=O)CC(C)(C)C2)C1c1cc2c(cc1Cl)OCO2 (configuration not stated)
    0.26, -1.9
O=c1ccc(-c2ccc(S(=O)(=O)Nc3cccc(Cl)c3)s2)n[nH]1
    -0.64, .
CCOC(=O)C1CCN(C(=O)[C@H]2[C@@H]3C[C@@H]4[C@H]2C(=O)O[C@@H]4C3)CC1
    -0.31, -1.7
C=CCSc1nc2c(c(=O)[nH]1)C(c1ccc(O)c(OCC)c1)CC(=O)N2 (configuration not stated)
    0.99, -1.8
CC1=C(C)CS(=O)N(S(=O)(=O)c2ccccc2)C1 (configuration not stated)
    ., -0.92
CN(CC(=O)O)S(=O)(=O)c1ccc2c(c1)NC(=O)CC(=O)N2
    1.3, .
Cc1nn(CC(=O)NC2CCCCC2)c(=O)c2c(-n3cccc3)n(-c3ccc(Cl)cc3)nc12
    0.83, .
Clc1ccccc1CSc1ncnc2nc[nH]c12
    0.7, -1.4
Cc1ccc(-c2ccc(=O)[nH]n2)cc1S(=O)(=O)NC1CCCCC1
    1.6, -1.2
Cc1ccc(S(=O)(=O)NCc2cccn2Cc2ccc(Cl)cc2)cc1
    11, .
CC1=C(C(=O)OCCc2ccccc2)C(c2ccc(C)s2)C2=C(CCCC2=O)N1 (configuration not stated)
    1, -3.1
OC(Cc1nc2ccccc2[nH]1)c1ccccc1Cl (configuration not stated)
    0.43, -0.22
Cc1cccn2c(=O)c(C(=O)NCC3CCCO3)c(O)nc12 (configuration not stated)
    1.1, -0.41
COc1ccc(Nc2nc(-c3ccncc3)nc3ccccc23)cc1
    ., -1.6
O=C(CSC1CC(=O)N(c2ccc(Br)cc2)C1=O)Nc1ccc(Cl)cc1 (configuration not stated)
    1, -0.44
COc1cccc(CCCCCN(C)C(N)=O)c1
    ., -1.8
O=C(NC1=NCCS1)c1cc2ccccc2o1
    1.3, -0.95
CCSc1nnc2n(-c3ccccc3)c(=O)c3c(C)c(C)sc3n12
    ., -1.2
COc1cc(-c2nc3c4ccccc4c4ccccc4c3[nH]2)cc(OC)c1O
    ., -3.4
CCn1c(=O)[nH]c2cc(OC)c(OC)cc2c1=O
    ., -1
N#Cc1c(NC(=O)c2cc(-c3ccc(O)cc3)on2)sc2c1CCC2
    -0.1, -3.9
COc1cc2c(cc1NS(=O)(=O)c1ccc(Br)cc1)n(C)c(=O)n2C
    1, -0.86
COc1ccc(C2CC(=O)N3CN(CCC(C)C)CSC3=C2C#N)cc1OC (configuration not stated)
    0.22, 4.7*
O=C(Cn1c(=O)c2cccn2c2cccnc21)NCCCN1CCCCC1
    0.24, .
CCCc1nn2c(=O)cc(O)nc2s1
    0.8, -0.37
O=C1C2C3C=CC(CC3)C2C(=O)N1c1ccc(F)cc1 (configuration not stated)
    0.48, -2.2
COc1ccc(OCC(=O)Oc2ccc3c(c2)C(C)=CC(C)(C)N3)cc1
    -13, -1.9
Cc1ccn2c(Nc3ccccc3C)c(-c3cccnc3)nc2c1
    ., -4.6
Cc1nc(N2CCN(c3ccccn3)CC2)nc2oc(-c3ccccc3)nc12
    -4.9, .
CCOc1ccc(C2c3c(-c4ccccc4O)n[nH]c3C(=O)N2CC2CCCO2)cc1 (configuration not stated)
    0.28, -0.11
Cc1cc(C)n2nc3nc(N4CCC(C)CC4)nc(-c4ccccc4)c3c2n1
    ., -0.74
COC(=O)c1sccc1NC(=O)c1cc2c(s1)-c1ccccc1OC2
    0.92, 1.6
CC(=O)Nc1nc(C)c(-c2csc(Nc3ccc(S(N)(=O)=O)cc3)n2)s1
    ., -2.7
CCOc1ccccc1NC(=O)C1CC2CSCN2C12C(=O)Nc1ccccc12 (configuration not stated)
    0.13, .
O=C(CSc1nc2ccccc2[nH]1)c1ccc(-c2ccccc2)cc1
    ., -4.2
CCC(Sc1nnc(C)n2c1cc1oc(C)cc12)C(=O)N1CCOCC1 (configuration not stated)
    1.3, .
CC(SC1=Nc2ccccc2C2=NC(C(C)C)C(=O)N12)C(=O)NCCc1ccccc1 (configuration not stated)
    0.73, .
Cc1ccc(OC(=O)CSc2nnc(-c3cccs3)o2)cc1
    0.7, -1.1
O=C(CSc1nc(-c2ccccc2F)nc2cc(=O)[nH]n12)N1CCc2ccccc2C1
    1.7, .
CCOc1c(Br)cc(C2C=C(C(=O)O)Nc3nnnn32)cc1OC (configuration not stated)
    1.4, .
Cc1nnc(NC(=O)c2nc(SC(C)C)ncc2Cl)s1
    0.18, 1.2
CSc1ncc(Cl)c(C(=O)Oc2ccc(C)cc2C)n1
    1.8, -2
Cc1ccc(Cl)cc1Nc1c(-c2ccc3c(c2)OCC(=O)N3)c(=O)c1=O
    -0.69, .
CCCS(=O)(=O)c1csc(C(=O)OC)c1N/N=C/c1cccs1
    ., -0.98
COc1ccc(-c2nc(SCC(=O)Oc3ccccc3)n3[nH]c(=O)cc3n2)cc1
    2, .
CCc1nnc(SCc2nc(-c3ccc(OC)cc3)oc2C)c2cc3sccc3n12
    3.6, .

# The list goes on.
# Second line of a record: HIV TAR-Tat, CDC25B-CDK2 inh
CNS(=O)(=O)c1c(C)nc2sc(C)cn2c1=O
    0.08, .
CCN1C(=O)CC(N2CCN(Cc3ccc4c(c3)OCO4)CC2)C1=O (configuration not stated)
    1.1, -0.92
CC1=C(C(=O)Nc2cc(C(=O)NCCc3c(C)noc3C)ccc2C)SCCO1
    0.91, .
Cc1nn(Cc2cccc(Cl)c2)c(=O)c2noc(C)c12
    -0.13, .
CN1C(=O)COc2ccc(C(=O)c3cc4ccccc4o3)cc21
    0.42, -1.2
Cc1[nH]ncc1CNC(=O)c1[nH]nc2c1CCc1ccccc1-2
    -0.14, .
Cn1c(=O)c2c(nc(Sc3ncn[nH]3)n2C)n(C)c1=O
    ., -0.75
O=C(CSc1nnc2ccccn12)Nc1ccccc1C(F)(F)F
    ., -1.9
CCOC(=O)N1CCN(S(=O)(=O)c2c(C(=O)N3CCCCC3)c(C)n(C)c2C)CC1
    0.68, .
COc1cc(C2CC(=O)NC3=C2C(=O)CC(c2cccs2)C3)c(OC)cc1Br (configuration not stated)
    0.75, -0.15
Cn1c(C(=O)Nc2ccc3c(c2)OCO3)cc2c(=O)n3ccccc3nc21
    1.8, .
CN(C)CCNC(=O)c1ccc(N2CCOCC2)nc1
    ., -0.61
Cc1nn(C(C)C(=O)Nc2ccc(F)cc2)c(=O)c2c1sc1ccccc12 (configuration not stated)
    2.6, -2.2
Cc1c(N)cccc1-c1nc2ccccc2s1
    0.79, -0.2
CCOc1cc2c(cc1OCC)C(c1cc(OC)ccc1OC)CC(=O)N2 (configuration not stated)
    -0.81, -1.2
c1ccc(CNc2nc(N3CCOCC3)nc3ccccc23)cc1
    ., -2.4
Cc1nc2c3ccccc3n3c(CCCC(=O)NCCCOC(C)C)nnc3n2n1
    0.11, 0.07
CN1CCN(CCNC(=O)c2cc3c(Cl)nc4ccccc4c3s2)CC1
    ., 0.18
COc1ccc(S(=O)(=O)c2cnc3nc[nH]n3c2=O)cc1
    0.23, -0.91
Cc1cc(Nc2ccc(Cl)cc2C)nc(-n2nc(C)cc2C)n1
    1.5, .
COc1ccccc1/C=C/c1nn2c(-c3cccc(Cl)c3)nnc2s1
    -0.35, -1.3
C#CCSc1nc2ccccc2n1C(=O)CCN1C(=O)c2cccc3cccc(c23)C1=O
    ., -3.4
COc1cc(C(=O)c2cc(Br)ccc2NC(=O)COc2ccccc2)cc(OC)c1OC
    ., -2.1
Cc1cccc2c1[nH]c1nc(SCC(C)C)nnc12
    0.9, -0.52
Cc1cc(C)c(C(=O)CC2(O)C(=O)Nc3ccccc32)c(C)c1 (configuration not stated)
    -0.21, 1
Cc1cc2nc(CSc3nnc(NC(=O)c4ccco4)s3)c(=O)[nH]c2cc1C
    -0.8, .
O=C(NCC1CCCO1)c1cnn2c(C(F)(F)F)cc(-c3cccs3)nc12 (configuration not stated)
    1.9, .
COc1ccc(Cl)cc1C1CC(=O)Nc2cc3c(cc21)OCCO3 (configuration not stated)
    ., -0.11
Cn1c(=O)c2c(nc(Cl)n2Cc2ccccc2Cl)n(C)c1=O
    2.4, 0.69
COc1ccc(OC)c(-c2noc(Nc3cccc(Cl)c3)n2)c1
    1.2, .
CCOc1ccccc1C1C2=C(CCCC2=O)Nc2nc(-c3cccc(C)c3)nn21 (configuration not stated)
    -0.53, -0.77
Cc1noc2ncnc(N3CCCC(C(=O)NC4CCCC4)C3)c12 (configuration not stated)
    1.1, .
O=c1cc(O)c2c(=O)n(-c3ccccc3)c3ccccc3c2o1
    ., -0.98
COc1ccc(N2C(=O)CSC2c2cccc(Br)c2)c(OC)c1 (configuration not stated)
    ., -0.56
O=C(CC1(O)C(=O)Nc2ccccc21)c1cc2ccccc2oc1=O (configuration not stated)
    ., -1.1
CCOc1ccc(-c2nc3ncccn3c2NCc2ccc(C)cc2)cc1
    1.2, .
COc1ccc(Br)cc1CNC(=O)Cn1ncn2nc(-c3cccs3)cc2c1=O
    0.19, -2.1
COCCOC(=O)c1c(C)oc2ccc(OCc3ccccc3Br)cc12
    2.6, -1.6
Cc1nc(N2CCOCC2)ncc1C(=O)NCC(C)C
    0.58, .
CCCCOC(=O)COc1ccc2c3c(c(=O)oc2c1)CCCC3
    ., -1.5
CC(C)c1ccc(S(=O)(=O)c2nnn3c2nc(NCCCN2CCCC2=O)c2sccc23)cc1
    0.23, .
O=C(Nc1ccccc1F)c1nn(-c2cccc(Cl)c2)ccc1=O
    1.1, -0.4
COc1cccc(NC(=O)CSCc2cc(=O)n3ccsc3n2)c1
    0.19, .
CCN1CCN(CCCNC(=O)Cn2cc3c(n2)-c2c(oc(C(=O)N4CCCC4)c2C)CC3)CC1
    3, .
Cc1nc(C)c(-c2ccc(SCc3ccccc3)nn2)s1
    0.13, .
Cc1cccc(Nc2ncnc3onc(-c4ccccc4C)c23)c1
    0.55, .
Cc1nn(-c2ccc(F)cc2)c(-n2cccc2)c1C(=O)NC1CCCC1
    0.77, .
COC(=O)c1ccc(S(=O)(=O)NCCc2ccccc2OC)n1C
    ., -2.5
CCN1CCN(C(c2ccc(Br)cc2)c2sc3nc(C)nn3c2O)CC1 (configuration not stated)
    ., -0.61
Cc1ccc(Nc2nc(NCCC(C)C)nc3c2cnn3C)c(C)c1
    1.1, .
CCC1Sc2ccc(S(=O)(=O)CCC(=O)Nc3cccnc3)cc2NC1=O (configuration not stated)
    0.21, .
Cc1cc(C)cc(NC(=O)CCc2c(C)nn(-c3ccc(N4CCCC4)nn3)c2C)c1
    0.67, .
C=CCNc1nnc(-c2ccccc2)s1
    2.2, 0.53
CSc1nsc(SC)c1C(=O)NC(=O)Nc1cc(C)on1
    ., -0.54
Cc1nn(C(C)C(=O)NCCCN2CCCC2=O)c2ccccc12 (configuration not stated)
    1.6, -0.89
COc1ccc(-c2nc(CSc3nnc(C)n4c3cc3oc(C)cc34)c(C)o2)cc1
    2.7, .
CC(C)N1CN(CCc2ccccc2)c2nc3ccccc3n2C1
    2.1, -1.2
Cc1ccc(/C=N/N=C2\SCC(=O)N2CC2CC2)cc1
    ., -0.74
Cc1ccc(C)c(OCc2cc(=O)n3c4c(sc3n2)CCCC4)c1
    1.1, -2.9
COc1ccccc1C1N(c2ccccc2)OC(=O)N1c1ccccc1 (configuration not stated)
    1.3, 0.62
O=C(NCc1ccc(Cl)cc1)c1ccc2oc(=O)[nH]c2c1
    1.6, .

# Shown tab-delimited: part of the list above
mol	HIV TAR-Tat	CDC25B-CDK2 inh
Cc1cc(C)c(C(=O)CC2(O)C(=O)Nc3ccccc32)c(C)c1 (configuration not stated)	-0.21	1
Cc1cc2nc(CSc3nnc(NC(=O)c4ccco4)s3)c(=O)[nH]c2cc1C	-0.8	.
O=C(NCC1CCCO1)c1cnn2c(C(F)(F)F)cc(-c3cccs3)nc12 (configuration not stated)	1.9	.
COc1ccc(Cl)cc1C1CC(=O)Nc2cc3c(cc21)OCCO3 (configuration not stated)	.	-0.11
Cn1c(=O)c2c(nc(Cl)n2Cc2ccccc2Cl)n(C)c1=O	2.4	0.69
COc1ccc(OC)c(-c2noc(Nc3cccc(Cl)c3)n2)c1	1.2	.
CCOc1ccccc1C1C2=C(CCCC2=O)Nc2nc(-c3cccc(C)c3)nn21 (configuration not stated)	-0.53	-0.77
